Compound activity: PubChem BioAssay, National Center for Advancing Translational Sciences (NCATS)
TsaE inh: displaces an ADP probe from E. coli YjeE (TsaE); Potency, µM; purified YjeE, fluorescence polarisation of a bound ADP probe; 71,000 compounds, 0.05% hits; P0AF67; active = well fitted falling curve; inconclusive = weaker or top-dose-only fall, or a rising curve; inactive = flat or poorly fitted curve;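 further: top concentration of the series not given in the record; excess ADP was the control for the full effect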
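Purified YjeE (10 uM) with BODIPY Texas Red-labeled ADP probe (2 uM); compounds pin-transferred, 15 min at room temperature. Binding inhibition read as decreased fluorescence polarization; ADP titration as control.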
Bst PK mod: pyruvate kinase (B. stearothermophilus) modulation | partly purified Bacillus stearothermophilus pyruvate kinase, luminescence ATP production; ribose 5-phosphate activator present at AC10 | Potency, µM | 51,000 compounds, 1.2% hits | AID 361; in the data active means potency below about 11 µM; inconclusive means mostly about 12 µM to 25 µM; inactive means weaker than that;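 the screen sought inhibitors and activators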;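 further: potency means the concentration at half of the fitted maximal effect; scaled between full activation by ribose 5 phosphate and full inhibition by luteolin; about four in five hits inhibit and the cells do not say which; series up to 57 µM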
* hit, by the source's call; i = inactive; x = no result given. A portion of the library; count on the stated rates, not on these rows.

SMILES	TsaE inh	Bst PK mod
C=CCNC(=O)C1CC(=O)N(c2ccc(OCC(=O)NCc3ccccc3)cc2)C1 (stereo not drawn)	i	>57
COc1cc(Nc2cc(C)nc3ncnn23)cc(OC)c1	i	x
COc1cccc(OC)c1C(=O)N1CCOCC1	i	>57
C#CCOCCCC(=O)O	i	x
O=C(Nc1ccccc1)c1cccc(N2CCCC2=O)c1	i	>57
N#Cc1nc(-c2ccc(F)cc2)oc1NCc1cccc2c1OCO2	i	x
O=C(C1CCC(C(=O)N2CCCCC2)CC1)N1CCCCC1 (stereo not drawn)	i	>57
CC1CC(C)CN(c2nc3c(c(=O)[nH]c(=O)n3C)n2CCCSc2nc3ccccc3s2)C1 (stereo not drawn)	i	>57
CCOC(=O)c1c(C)c2c(n1C)CCC/C2=N\O	i	>57
Cn1c(=O)n(C)c2cc(S(=O)(=O)N3CCOCC3)ccc21	i	>57
CCN1CCCC1CN(Cc1cc2cc(C)ccc2[nH]c1=O)C(=O)Nc1ccccc1OC (stereo not drawn)	i	>57
N#CC(C(=O)OC1CCCCC1)c1nc2ccccc2nc1N1CCOCC1 (stereo not drawn)	i	>57
c1ccc(Cn2c(Nn3cnnc3)nc3ccccc32)cc1	i	>57
CN(C)C(=O)c1ccc(-c2nc(N(C)C)c3ccccc3n2)cc1	i	x
CC(=O)N1CCc2cc(Br)cc(S(=O)(=O)NCCN3CCCCC3C)c21 (stereo not drawn)	i	>57
Cc1noc(C)c1S(=O)(=O)N1CCCC(C(=O)Nc2cccnc2)C1 (stereo not drawn)	i	>57
Cc1cccc(NC(=O)C2CCN(S(=O)(=O)c3cccc4cccnc34)CC2)c1	i	x
COc1ccc(-c2noc(CN(C(=O)c3ccc(OC(C)=O)cc3)C(C)C)n2)cc1OC	i	>57
CC(=O)OCC(=O)[C@H]1CC[C@H]2[C@@H]3CCC4=CC(=O)CC[C@]4(C)[C@H]3CC[C@]12C	x	>25.6
O=C(Nc1ccccc1C(F)(F)F)c1cc(S(=O)(=O)N2CCOCC2)ccc1F	i	>57
CC(C)(C)c1ccc(-c2nnc3sc(-c4ccncc4)nn23)cc1	i	>57
N[C@@H](C(=O)O)c1ccc(C(=O)O)c(O)c1	i	x
CCSc1nnc(NC(=O)CSc2nnc(Cc3cccn3C)n2-c2ccc(F)cc2)s1	i	>57
COc1ccc(Cl)cc1N(C)C(=O)CCc1nc(-c2ccc(C)cc2)no1	i	>57
COc1ccc(N2C(=O)CC(NCc3cccs3)C2=O)cc1 (stereo not drawn)	i	>57
CN(CCCNC(=O)c1cccc(N2CCCC2=O)c1)c1ccccc1	i	>57
Cc1csc(NC(=O)CCNS(=O)(=O)c2ccc3c(c2)c(=O)n(C)c(=O)n3C)n1	i	>57
CC(C)N=C(NC#N)SCc1ccccc1F	i	>57
O=C(c1cc(-c2cccc(O)c2)on1)N1CCCCC1	i	x
CCCCCCCCCCCCCCCC(=O)NC[C@@H](COP(=O)([O-])OCC[N+](C)(C)C)OCC	i	x
COc1cc(-c2nnc3sc(Cc4ccccc4)nn23)cc(OC)c1OC	i	>57
CNc1oc(C)nc1S(=O)(=O)c1ccccc1	i	x
CCCC(=O)NC(C)c1nc2ccccc2n1CC (stereo not drawn)	i	x
COc1ccc(C(c2nnnn2Cc2ccc(F)cc2)N2CCN(c3ccccc3)CC2)cc1 (stereo not drawn)	i	>57
COc1ccc(N2CC(C(=O)OCC(=O)c3cccc(OC)c3)CC2=O)cc1 (stereo not drawn)	i	>57
CCOC(=O)c1ccc(N2CC(O)=C(c3nc4ccccc4c(=O)[nH]3)C2=N)cc1	x	>25.6
CCOc1cc2c3c(c1)C1(OCCO1)C(=O)N3C(C)(C)CC2C (stereo not drawn)	i	>57
Cc1ccnc(NC(=O)CSc2cc(=O)n(C)c3ccccc23)c1	i	>57
CC(C)c1cc(C(=O)N2CCN(C(c3ccccc3)c3ccccc3)CC2)no1	i	>57
CC(Sc1ccc2nnc(-c3ccc(F)cc3)n2n1)C(=O)O (stereo not drawn)	i	x
CC(C)CN1CCC2(CC1)CCN(C(=O)c1cccc(F)c1)CC2	i	x
CC(C)NC(=O)N1CCCC2(CCN(C(=O)c3csnn3)CC2)C1	i	x
Cc1ccc(NCc2nnc(SCC(=O)N3CCc4ccccc43)n2C)cc1	i	>57
CCOc1ccc(NC2=NC(C(=O)NCc3ccccc3)CC(=O)N2)cc1 (stereo not drawn)	i	>57
COCCNC(C)C(=O)C12CC3CC(CC(C3)C1)C2 (stereo not drawn)	i	>57
O=C(O)c1ccc(S(=O)(=O)c2ccc3c(c2)C(=O)N(CC2CCCO2)C3=O)cc1 (stereo not drawn)	i	x
CCCOP(=O)(c1ccc(N(C)C)cc1)C(O)c1cc(OC)c(OC)c(OC)c1 (stereo not drawn)	i	>57
CC1C=CCC2C(=O)N(c3cccc(C(=O)N4CCCCCC4)c3)C(=O)C12 (stereo not drawn)	i	>57
Cc1cc(C(=O)CCC(=O)N2CCN(S(=O)(=O)c3cccs3)CC2)c(C)s1	i	>57
CCC(CC)C(=O)Nc1c2c(nn1-c1ccc(OC)cc1)CS(=O)C2 (stereo not drawn)	i	>57
CCn1c(=O)cc(SCC(=O)NCCCN2CCN(c3ccc(F)cc3)CC2)c2ccccc21	i	>57
Cc1ccc(SC(C)C(=O)N2CCCC2)cc1 (stereo not drawn)	i	>57
Cc1cc2c(cc(C(=O)O)n2C)s1	i	>57
CCC(=O)NC(=Nc1nc2ccccc2s1)NC(=O)CC	i	x
Cn1c(C(=O)OCC(=O)NCc2cccs2)cc2sccc21	i	>57
CCCC(c1nnnn1CCOC)N1CCN(C(=O)c2ccco2)CC1 (stereo not drawn)	i	>57
Nc1nnc(SCc2ccc(F)cc2Cl)s1	i	>57
O=C1O/C(=C\C(=O)N2CCOCC2)c2ccccc21	i	x
COc1cc(C2C(C#N)=C(N)Oc3cc(C)n(Cc4ccccn4)c(=O)c32)cc2c1OCO2 (stereo not drawn)	x	>25.6
COCCNC(=O)NC(=O)COC(=O)C12CC3CC(CC(NC(C)=O)(C3)C1)C2	i	>57
More entries:
SMILES	TsaE inh	Bst PK mod
O=c1c(-c2cccc(Cl)c2)nc2cncnc2n1Cc1ccccc1Cl	i	x
CC(C)Oc1cc(O)c2c(=O)c(-c3ccc(O)cc3)coc2c1	i	x
Cc1ccc(-n2c(SCc3cn4ccsc4n3)nc3ccccc3c2=O)cc1	i	>57
Cc1c(NC(=O)C2CC=CCC2C(=O)O)c(=O)n(-c2ccccc2)n1C (stereo not drawn)	i	x
Cc1cc(NC(=O)COC(=O)CSc2nc3cc(Cl)ccc3n2Cc2ccccc2)no1	i	>57
COc1cc(C2NC(=O)NC(C)=C2C(=O)OCC2CCCO2)ccc1O (stereo not drawn)	i	x
Cc1ccc(C(CC(=O)N2CCOCC2)c2ccco2)cc1 (stereo not drawn)	i	>57
COc1ccc(-c2nnc(SCC(=O)c3ccc(C)o3)o2)cc1	i	>57
C[C@]1(C(=O)NCC2CC2)C=C[C@@H](Cc2ccccc2)N1C(=O)c1ccccc1	i	x
O=C(Nc1cccc(F)c1)C1CCN(C(=O)Cc2ccccc2)CC1	i	x
CC1C2C(C)N(C)C(=O)N(C)C2N(C)C(=O)N1C (stereo not drawn)	i	>57
CCN1CC=C2C(C1)C(c1ccc(Cl)s1)C(C#N)=C(N)C2(C#N)C#N (stereo not drawn)	i	>57
O=c1[nH]c(CN(CCO)CCO)nc2c1C1(CCCCC1)Cc1ccccc1-2	x	>25.6
O=C(c1ccncc1)N1CCN(C(=O)c2cccc3ccccc23)CC1	i	x
C=C(C)Cn1c(Sc2nc3ccccc3[nH]2)nc2c1c(=O)[nH]c(=O)n2C	i	>57
CCC(=O)Nc1ccc(NC(=O)CN2CCCC(C)C2)c(Cl)c1 (stereo not drawn)	i	>57
CCn1nc(NC(=O)c2cccnc2)c2cc3ccccc3nc21	x	>25.6
CCCc1cc(=O)oc2cc(OCC(=O)N(C)C)c(Cl)cc12	i	>57
COc1nc(OC)nc(N2CCC(C(=O)NCC3CCCCC3)CC2)n1	i	>57
CC1CCN(C(=O)CSc2nnc(-c3cc4ccccc4cc3O)n2Cc2ccco2)CC1	i	x
O=C(O)c1cn(C2CC2)c2cc(N3CCNCC3)c(F)cc2c1=O	i	x
COc1ccc(-n2c(Cc3cccn3C)nnc2SCC(=O)Nc2ccc(C)cc2C)cc1	i	x
CN(CCc1ccccn1)C(=O)CCNC(=O)Cn1cnc2ccccc2c1=O	i	>57
O=C(NC1CCCCCC1)C1CC(=O)N(Cc2ccccc2)C1 (stereo not drawn)	i	>57
CCC(=O)Nc1c2c(nc3c1CCC3)CCCC2	i	>57
COc1ccc(N2CCn3c2nc2c3c(=O)n(CCCc3ccccc3)c(=O)n2C)cc1	i	>57
O=c1[nH]c2cc3c(cc2cc1C(c1nnnn1C1CCCC1)N1CCSCC1)OCCO3 (stereo not drawn)	i	>57
COc1ccccc1N(C(=O)NCc1ccccc1)C1=NCC(C)S1 (stereo not drawn)	i	x
COc1ccc(OC)c(NC(=O)C2CCCN2C(=O)C2CCC(C)CC2)c1 (stereo not drawn)	i	x
Cn1c(=O)[nH]c(=O)c2c1nc(N1CCOCC1)n2CCCSc1ncccn1	i	>57
CC1CCCN(C(=O)CSc2nnc(-c3c[nH]c4ccccc34)o2)C1 (stereo not drawn)	i	>57
C=CCn1c(NCc2ccc3c(c2)OCO3)nc2ccccc21	i	x
CCOC(=O)c1c(N)sc2c1C1CCN2CC1	i	>57
CC1CC(=O)N(Cc2ccccc2)c2ccccc2N1C=O (stereo not drawn)	i	>57
C=C1CC[C@H](O)C/C1=C/C=C1\CCC[C@]2(C)[C@H]1CC[C@H]2[C@@H](C)/C=C\[C@@H](C)C(C)C	i	x
CCC[C@@H]1C[C@@]1(CCC)C(NC(=O)OCc1ccccc1)c1ccc(-c2ccccc2)cc1 (stereo partly drawn)	i	x
CCOc1ccccc1OCc1nn2c(COc3ccccc3)nnc2s1	i	>57
COC(=O)[C@@]1(Cc2ccc(OC)cc2)[C@H]2c3cc(C(=O)N(C)C)n(Cc4ccc(C)c(F)c4F)c3C[C@H]2CN1C(=O)c1ccccc1	i	x
COc1ccc(C(=O)Oc2cccnc2)cc1OC	i	>57
Cc1cc(-c2[nH]nc3c2C(c2ccsc2)C(C#N)=C(N)O3)c(C)s1 (stereo not drawn)	i	>57
COc1ccc(C(=O)NCCc2c[nH]c3ccccc23)cc1S(=O)(=O)N1CCOCC1	i	>57
COc1ccc(CC(=O)NC2CCN(Cc3nnnn3C(C)(C)C)CC2)cc1OC	i	>57
CC1(C)C(c2ccccc2)=NC(c2ccccc2)N1O (stereo not drawn)	i	x
COc1cccc(-n2c(CNC(=O)OC(C)(C)C)n[nH]c2=S)c1	i	>57
CCCCOc1cccc(NC(=O)CSc2nccn2C)c1	i	x
O=C(OCc1cc2ccccc2[nH]c1=O)C1CCCO1 (stereo not drawn)	i	>57
O=C(Nc1ccc2ccccc2c1)N1CCN(c2ncccc2C(F)(F)F)CC1	i	>11.4
COC(=O)C1C2C=CC3(CN(CCc4ccccc4)C(=O)C13)O2 (stereo not drawn)	i	>57
O=C(NCCN1CCCCC1)c1ccc(I)cc1	i	x
CCC(Sc1nc(-c2ccccc2)c(C#N)c(=O)[nH]1)C(=O)Nc1cc(C)on1 (stereo not drawn)	i	x
CC(C)COC(=O)NCC12C=CC(O1)C1C(=O)N(c3ccc(Cl)cc3)C(=O)C12 (stereo not drawn)	i	>57
CC1CCCO1 (stereo not drawn)	i	x
CSc1nsc(SC)c1NC(=O)OCC1CCCO1 (stereo not drawn)	i	>57
CCOC(=O)Nc1ccc2c(c1)N(C(=O)N(C)C)c1ccccc1CC2	i	x
Cc1cccc2cc(C(c3nnnn3C(C)(C)C)N3CCN(C(=O)c4ccco4)CC3)c(=O)[nH]c12 (stereo not drawn)	i	>57
CC1=C(C(N)=O)C(c2ccco2)C(C(N)=O)=C(C)N1	i	x
N#Cc1nc(COc2ccc(Cl)cc2)oc1NCc1ccc2c(c1)OCO2	i	>57
